# Arbovirus inh = antivirals against arbovirus infection, primary screen, cell-based, full library, 10K replicate subset; arbovirus infection cell-based antiviral screen; inhibition, % at 10 µM; actives 0.37% (n = 200,000); AID 1251, 2008;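 active = inhibition from about 30%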;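 note: bluetongue infection of BSR cells; cell survival read as ATP light after 72 h; 0% = infected wells without compound and 100% = uninfected wells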
# YopH inh = YopH tyrosine phosphatase inhibitors, primary screen, biochemical, fluorescence Ex485/Em525. actives 0.16% (n = 140,000). YopH tyrosine phosphatase [Yersinia enterocolitica]. inhibition, %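 (about 10 µM by stock and volumes)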;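 active = inhibition of 50% or more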;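 note: controls were vehicle for no effect and minimum signal wells for full effect; inactives centre near -20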
# Mtb bLac sens = beta-lactam sensitization of Mtb H37Rv, H37Rv; M. tuberculosis H37Rv growth with meropenem, percent inhibition; hits of this screen are not shown here; inhibition, % at 25 µM; actives 0.27% (n = 330,000);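 active = about 74% or more and at least 40 points above the plate without the antibiotic, then above 30% in a dose series; inconclusive = first-round hits that could not be retested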;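 note: growth measured after seven days incubation then overnight dye step; 0% = bacteria only wells and 100% = bacteria with antibiotic; twin plates without the antibiotic show which effects depend on it; some results filed as inactive read as strong as hits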
# Mtb H37Rv = M. tuberculosis H37Rv growth inhibitors, H37Rv strain (AID 1626). M. tuberculosis H37Rv growth inhibition; higher % means a stronger effect. inhibition, % at 10 µM; hits with a dose series show IC50 in µM. actives 0.95% (n = 220,000);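 active = confirmed in a dose series; inconclusive = inhibition above 80% but not taken into the dose series; inactive = below 80% or under 30% at every dose of the series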;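 note: bacteria incubated seven days before Alamar blue readout; 0% = bacteria only wells and 100% = bacteria with antibiotic wells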
# RecA intein inh = Mtb RecA intein splicing inhibitors, primary screen, biochemical, fluorescence, HTS; cell-free RecA intein splicing; actives 0.75% (n = 290,000); Protein RecA (Mycobacterium tuberculosis (strain ATCC 25618 / H37Rv)), P9WHJ3; inhibition, %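 (about 9 µM by stock and volumes)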; in the data active = inhibition above about 30%; inconclusive = no clear call, values can overlap the other calls;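 note: 0% = vehicle wells and 100% = reference inhibitor control wells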
# Target sequence (P9WHJ3 whole entry, looked up): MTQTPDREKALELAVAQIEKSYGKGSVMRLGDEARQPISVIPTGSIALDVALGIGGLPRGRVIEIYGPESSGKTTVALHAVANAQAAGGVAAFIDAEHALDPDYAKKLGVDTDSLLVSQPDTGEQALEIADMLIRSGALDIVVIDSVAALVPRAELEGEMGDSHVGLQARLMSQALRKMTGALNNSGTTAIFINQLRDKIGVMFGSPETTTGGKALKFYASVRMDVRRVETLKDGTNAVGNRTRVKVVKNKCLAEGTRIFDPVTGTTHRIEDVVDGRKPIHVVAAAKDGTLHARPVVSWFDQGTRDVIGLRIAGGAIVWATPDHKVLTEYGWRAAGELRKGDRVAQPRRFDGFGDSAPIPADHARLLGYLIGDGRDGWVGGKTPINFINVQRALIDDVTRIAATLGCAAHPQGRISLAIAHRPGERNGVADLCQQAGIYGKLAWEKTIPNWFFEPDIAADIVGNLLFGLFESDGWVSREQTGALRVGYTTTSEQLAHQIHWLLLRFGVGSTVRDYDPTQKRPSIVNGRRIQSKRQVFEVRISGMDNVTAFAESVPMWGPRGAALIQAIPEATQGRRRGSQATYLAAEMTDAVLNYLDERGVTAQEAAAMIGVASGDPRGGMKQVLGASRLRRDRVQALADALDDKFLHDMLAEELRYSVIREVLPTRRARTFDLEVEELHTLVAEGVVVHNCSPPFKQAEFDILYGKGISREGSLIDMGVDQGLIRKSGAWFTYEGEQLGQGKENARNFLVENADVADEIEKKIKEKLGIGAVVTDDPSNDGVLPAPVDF
# Arbovirus inh repeat = also measured in Arbovirus inh; calls as there; inhibition, %; measured here: 10K subset replicate screen; many hits read low in the repeat;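 first of two repeat runs on a subset; 0% = infected and 100% = uninfected wells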
# Active calls of the source: *; ? = inconclusive; · = no result given. An excerpt; rates above refer to the full screens.
# A first look (23 entries):
SMILES,Arbovirus inh,YopH inh,Mtb bLac sens,Mtb H37Rv,RecA intein inh,others
COc1ccc(-c2noc(CCC(=O)Nc3cccnc3)n2)cc1,·,·,56,·,-0.8,
CCOC(=O)C(NC(C)=O)(Nc1ccc(S(=O)(=O)Nc2nccs2)cc1)C(F)(F)F (stereo unspecified),-5,-6,98,16%,0.1,
CC(C)COC(=O)c1ccc2c(c1O)C(=O)c1ccccc1C2=O,-26,11,100,2.5µM*,20,
CC(C)CC1NC(=O)N(CC(=O)N2CCN(S(=O)(=O)c3ccc4ccccc4c3)CC2)C1=O (stereo unspecified),4,-147,-11,3%,1.0,
CCOc1ccccc1NC(=O)CN(c1ccc(OC)cc1)S(=O)(=O)c1c(C)noc1C,0,-35,3,-4%,-3.6,
COc1cc2c(cc1OC)CN(Cc1cc(=O)n3c(-c4ccccc4)csc3n1)CC2,-1,·,4,3%,·,
CC(C)(C)NC(=O)C(c1ccc(F)cc1)N(Cc1ccco1)C(=O)Cn1nnc(-c2cccs2)n1 (stereo unspecified),2,-23,2,-13%,0.7,
CCN1CCN(c2ccc(S(=O)(=O)N(CC)CC)cc2[N+](=O)[O-])CC1,-2,-23,0,2%,2.3,
Cc1ccccc1N=Cc1c(O)n(-c2nccs2)c(=O)c2ccccc12,-14,-25,11,12%,-6.8,
C=CCn1c(SCC(=O)N2CCCC2)nc2scc(-c3cccs3)c2c1=O,-10,-40,-4,·,3.0,
COc1ccc(C(=O)NCCSCc2ccc(C)cc2)cc1,-7,-35,-8,3%,-5.2,
Cc1ccc(C(=O)N2CCCC(Nc3ccc(F)cc3)C2)cc1C (stereo unspecified),·,·,?,·,-0.3,
Cc1nc(=O)c(-c2ccccc2)c(C)n1Cc1ccccc1,1,-24,6,-9%,·,
CCCc1cc(=O)[nH]c(SC/C=C/c2ccccc2)n1,·,·,-8,·,0.3,
C=CCNc1nc(Nc2ccc(OC)cc2OC)nc(OCC)n1,2,-33,-4,4%,0.2,
CC(=O)COc1ccc2c(c1C)O/C(=C\c1ccco1)C2=O,·,·,1,·,-1.1,
CC(=O)Oc1c(Cl)c(N2CCOCC2)c(OC(C)=O)c2ccccc12,-10,-14,4,-10%,7.4,Arbovirus inh repeat=-21
CC(C)CNC(=O)c1ccc2c(c1)C(=O)N(C1CCCCC1)C2=O,·,·,4,·,3.7,
O=C(Cc1ccc(F)cc1)Nc1ccc(Cl)cn1,·,·,-6,·,-0.8,
Cc1ccc(OC(=O)CCS(=O)(=O)c2ccc(C)cc2)cc1,·,·,-14,·,2.9,
CCc1ccccc1NC(=O)CN(c1ccc(OC)cc1OC)S(=O)(=O)c1ccccc1[N+](=O)[O-],-5,·,-5,-8%,4.0,
COc1ccc(-c2[nH]ncc2CN(C)Cc2cnccn2)c(OC)c1,3,·,-14,1%,-2.6,
O=C1CCC(C(=O)N(c2ccccc2)C2(C(=O)NC3CCCCC3)CCCCC2)N1 (stereo unspecified),0,-40,-4,0%,·,Arbovirus inh repeat=4

# Main list, repeating the preview:
SMILES,Arbovirus inh,YopH inh,Mtb bLac sens,Mtb H37Rv,RecA intein inh,others
COc1ccc(-c2noc(CCC(=O)Nc3cccnc3)n2)cc1,·,·,56,·,-0.8,
CCOC(=O)C(NC(C)=O)(Nc1ccc(S(=O)(=O)Nc2nccs2)cc1)C(F)(F)F (stereo unspecified),-5,-6,98,16%,0.1,
CC(C)COC(=O)c1ccc2c(c1O)C(=O)c1ccccc1C2=O,-26,11,100,2.5µM*,20,
CC(C)CC1NC(=O)N(CC(=O)N2CCN(S(=O)(=O)c3ccc4ccccc4c3)CC2)C1=O (stereo unspecified),4,-147,-11,3%,1.0,
CCOc1ccccc1NC(=O)CN(c1ccc(OC)cc1)S(=O)(=O)c1c(C)noc1C,0,-35,3,-4%,-3.6,
COc1cc2c(cc1OC)CN(Cc1cc(=O)n3c(-c4ccccc4)csc3n1)CC2,-1,·,4,3%,·,
CC(C)(C)NC(=O)C(c1ccc(F)cc1)N(Cc1ccco1)C(=O)Cn1nnc(-c2cccs2)n1 (stereo unspecified),2,-23,2,-13%,0.7,
CCN1CCN(c2ccc(S(=O)(=O)N(CC)CC)cc2[N+](=O)[O-])CC1,-2,-23,0,2%,2.3,
Cc1ccccc1N=Cc1c(O)n(-c2nccs2)c(=O)c2ccccc12,-14,-25,11,12%,-6.8,
C=CCn1c(SCC(=O)N2CCCC2)nc2scc(-c3cccs3)c2c1=O,-10,-40,-4,·,3.0,
COc1ccc(C(=O)NCCSCc2ccc(C)cc2)cc1,-7,-35,-8,3%,-5.2,
Cc1ccc(C(=O)N2CCCC(Nc3ccc(F)cc3)C2)cc1C (stereo unspecified),·,·,?,·,-0.3,
Cc1nc(=O)c(-c2ccccc2)c(C)n1Cc1ccccc1,1,-24,6,-9%,·,
CCCc1cc(=O)[nH]c(SC/C=C/c2ccccc2)n1,·,·,-8,·,0.3,
C=CCNc1nc(Nc2ccc(OC)cc2OC)nc(OCC)n1,2,-33,-4,4%,0.2,
CC(=O)COc1ccc2c(c1C)O/C(=C\c1ccco1)C2=O,·,·,1,·,-1.1,
CC(=O)Oc1c(Cl)c(N2CCOCC2)c(OC(C)=O)c2ccccc12,-10,-14,4,-10%,7.4,Arbovirus inh repeat=-21
CC(C)CNC(=O)c1ccc2c(c1)C(=O)N(C1CCCCC1)C2=O,·,·,4,·,3.7,
O=C(Cc1ccc(F)cc1)Nc1ccc(Cl)cn1,·,·,-6,·,-0.8,
Cc1ccc(OC(=O)CCS(=O)(=O)c2ccc(C)cc2)cc1,·,·,-14,·,2.9,
CCc1ccccc1NC(=O)CN(c1ccc(OC)cc1OC)S(=O)(=O)c1ccccc1[N+](=O)[O-],-5,·,-5,-8%,4.0,
COc1ccc(-c2[nH]ncc2CN(C)Cc2cnccn2)c(OC)c1,3,·,-14,1%,-2.6,
O=C1CCC(C(=O)N(c2ccccc2)C2(C(=O)NC3CCCCC3)CCCCC2)N1 (stereo unspecified),0,-40,-4,0%,·,Arbovirus inh repeat=4
O=C(CCNC(=O)c1ccccc1)Nc1ccc(F)c(Cl)c1,-4,-51,-4,2%,-0.5,
COc1ccc(C)cc1NC(=O)CSc1ccc(Cl)cc1,3,-26,12,2%,5.1,
O=C1CN(C(=O)COc2ccc(Br)cc2Br)c2ccccc2N1,-1,·,-4,6%,0.2,
CCOC(=O)N1CCC(NC(=O)c2cc(C(=O)NCC(OC)OC)ccc2CO)CC1,2,-15,-7,-6%,-4.9,
Cc1cc2nc(C3CCCN(C(=S)Nc4ccccc4C)C3)[nH]c2cc1C (stereo unspecified),3,-29,2,0%,4.2,
Cc1ccsc1C1C(C#N)=C(N)Oc2n[nH]c(C)c21 (stereo unspecified),10,·,-3,5%,15,
Nc1nonc1C(=O)N/N=C/c1ccc(-c2ccc(Cl)c(C(=O)O)c2)o1,3,·,-3,2%,-4.6,
O=C(Cc1ccccc1)NCc1n[nH]c(=S)n1-c1ccc(Br)cc1,6,·,-7,-2%,-4.4,
O=C(c1cc(S(=O)(=O)N2CCOCC2)ccc1F)N1CCN(Cc2ccccc2)CC1,-1,-31,1,5%,3.8,
Cc1ccc(NC(=O)c2ccc(OC(=O)c3ccco3)cc2)cc1,1,0,4,11%,1.6,
S=C1SCN(CC2CC2)CN1CC1CC1,·,·,60,3%,2.9,
COc1ccc(CNC(=O)C[C@H]2C(=O)N(Cc3ccccc3)C[C@@H]2Cc2ccccc2)cc1,·,·,-10,·,-1.8,
CC(=O)c1ccc(NC(=O)N[C@@H](Cc2ccccc2)C(=O)O)cc1,7,-40,-7,-11%,0.2,
COc1ccc(S(=O)(=O)N2CCC(C(=O)NCC3CCCO3)CC2)cc1Cl (stereo unspecified),·,·,-6,·,-1.1,
COc1ccc(C2/C=C\CN(C(=O)Nc3ccccc3)CC(=O)N2Cc2ccc(F)cc2)cc1 (stereo unspecified),·,·,-7,-9%,2.1,
Cc1nn(Cc2ccc(F)cc2)c(C)c1NC(=O)c1cnn2c1NC(c1ccccc1)CC2C(F)(F)F (stereo unspecified),-41,-8,34,-3%,·,
Cc1ccc(NC(=O)CSc2ccc3c(c2)OCCO3)c(O)c1,·,·,5,·,0.4,
CC(=O)N1CCc2c(sc(NC(=O)CS(=O)(=O)c3ccc(F)cc3)c2C#N)C1,·,·,12,·,-1.7,
COc1ccc(Br)cc1/C=N/NC(=O)c1ccc(COc2ccc3c(c2)CCC3)o1,-20,-32,67,6%,-1.3,
CCn1cc(C(=O)NC(C)C2CC3CCC2C3)cn1 (stereo unspecified),0,-28,1,9%,0.0,
O=S(=O)(/C=C/c1ccccc1)N1CCN(Cc2ccccc2)CC1,2,·,4,2%,2.4,
COc1ccc(Br)cc1CN1CCN(C(=O)c2ccc(F)cc2)CC1,-4,·,-7,3%,2.8,

# Reprinted from the part before: 2 compounds; new compounds follow.
SMILES,Arbovirus inh,YopH inh,Mtb bLac sens,Mtb H37Rv,RecA intein inh,others
O=S(=O)(/C=C/c1ccccc1)N1CCN(Cc2ccccc2)CC1,2,·,4,2%,2.4,
COc1ccc(Br)cc1CN1CCN(C(=O)c2ccc(F)cc2)CC1,-4,·,-7,3%,2.8,
CCCCN(CC)C(=O)CSc1nc2c(sc(=S)n2-c2ccc(OCC)cc2)c(=O)[nH]1,47*,·,·,-4%,4.8,
CCOc1cc(NC(=S)NCCCN2CCOCC2)c(OCC)cc1NC(=O)c1ccccc1C,-9,·,5,-2%,-0.3,
O=[N+]([O-])c1ccc(N2CCN(c3ccccc3)CC2)nc1,·,·,1,·,-1.0,
Cc1cccc(N(C(=O)c2snc(C(N)=O)c2N)C(C(=O)NCC2CCCO2)c2cccs2)c1 (stereo unspecified),0,·,4,1%,-1.5,
CCOC(=O)CN1C(=O)N[C@@H](c2cccc(F)c2)C(C(C)=O)=C1C,·,·,-6,-1%,2.5,
Cn1c(N)c(C(=O)Nc2ccccc2)c(=O)[nH]c1=O,·,·,-3,14%,-1.5,
Cc1nc(-c2ccc(C(=O)Nc3ccc(F)cc3)cc2)cs1,-12,·,0,8%,5.3,
CCc1cc(=O)oc2c(CNCc3ccccc3F)c(O)c(Cl)cc12,·,·,-5,·,-36,
NC(=Nc1ccccc1)NC(=O)c1nc(Cl)c(N)nc1N,·,·,5,-8%,-4.3,
CCCCN(CC)CCNC(=S)Nc1ccc2nc(N3CCN(C)CC3)cc(C)c2c1,·,·,?,·,-5.0,
CCCc1nn(C)c(C(=O)Nc2ccc(CC)cc2)c1Cl,13,-19,96,>100µM*,9.5,
O=C(CC1S/C(=N/N=C2CCCCCC2)NC1=O)Nc1ccccc1C(F)(F)F (stereo unspecified),·,·,-2,·,2.7,
COc1ccc(NS(=O)(=O)c2ccc(NC(=O)c3ccccc3Br)cc2)nn1,1,·,-3,-3%,-6.0,
Cc1cc(C)n(-c2cc(Cl)cc(Cl)c2)c(=O)c1C#N,7,-1,8,-3%,-1.6,
S=c1[nH]nc(COc2ccccc2)n1/N=C/c1ccccc1Br,·,·,?,·,-0.9,
COC(=O)C1=C(c2cc3ccccc3s2)C[C@@H]2CC[C@H]1N2C(=O)NCc1ccc(C(F)(F)F)cc1,·,·,6,6%,22,
C=CCn1c(SCC(=O)NC(N)=O)nnc1-c1cc2c(s1)CCC(CC)C2 (stereo unspecified),-2,-17,·,3%,1.0,
CN(C)c1ccc(-n2cccc2/C=C/[N+](=O)[O-])cc1,5,·,-7,·,-0.1,
O=C(O)CCc1ccc(-c2cccs2)n1NC(=O)c1ccc(Cl)cc1,7,-6,8,-4%,-0.6,Arbovirus inh repeat=-3
COc1ccc(-c2ccc(CCC(=O)O)n2-c2ccc(O)cc2)cc1,-17,·,3,6%,-0.4,
CNCc1ccccc1Sc1ccc(OC)cc1,-8,-16,3,·,0.4,
Cc1ccc(SCCN2CCN(C)CCC2=O)cc1,·,·,·,2%,1.3,
Cc1ccc(CNc2ncc(-c3ccccc3)n2C)o1,-4,·,0,-4%,-4.3,
CC(=O)c1c(C)[nH]c(C(=O)CN2C(=O)NC(C)(c3ccc4c(c3)OCO4)C2=O)c1C (stereo unspecified),·,·,?,·,-0.9,
COc1ccc(-n2c(-c3cnccn3)n[nH]c2=S)cc1,10,-189,-2,-12%,-0.8,
CC(C)CC(CCc1ccccc1)OS(N)(=O)=O (stereo unspecified),·,·,-5,·,3.8,
Cc1ccc(NCc2nc3ccccc3n2CCOc2ccccc2)cc1,14,-7,2,4%,13,
O=C(O)C1=NOC(CNc2ncc(C(F)(F)F)cc2Cl)C1 (stereo unspecified),1,·,-2,0%,0.1,
Cc1ccc2c(c1)N(C(=O)CCC(=O)NCC(C)c1ccccc1)CC(C)O2 (stereo unspecified),·,·,1,·,5.2,

# Screens as filed in PubChem BioAssay.
